Mtb MbtI inh: MbtI salicylate synthase inhibition | purified MbtI enzyme, fluorescence intensity read-out | 0.89% of 100,000 active | P9WFX0 | inhibition, %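 (about 17 µg/mL by stock and volumes)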;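 active = above 50% in both replicates, above 80% if mildly self-fluorescent; inactive = the rest, strongly fluorescent compounds included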;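 also: 0% = mean of negative and 100% = mean of positive controls; one replicate is shown; some compounds called inactive have numbers as strong as hits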
Polio RdRp inh: inhibitors of poliovirus RNA polymerase binding and polymerization. P03300. poliovirus polymerase elongation, fluorescence polarization; hits give low values. % elongation, % (compound at 16.7 µg/mL). 0.66% of 150,000 active; in the data active = % elongation below about 90%; also: some results filed as inactive read as strong as hits
Target sequence (P03300 1749-2209 limits assumed): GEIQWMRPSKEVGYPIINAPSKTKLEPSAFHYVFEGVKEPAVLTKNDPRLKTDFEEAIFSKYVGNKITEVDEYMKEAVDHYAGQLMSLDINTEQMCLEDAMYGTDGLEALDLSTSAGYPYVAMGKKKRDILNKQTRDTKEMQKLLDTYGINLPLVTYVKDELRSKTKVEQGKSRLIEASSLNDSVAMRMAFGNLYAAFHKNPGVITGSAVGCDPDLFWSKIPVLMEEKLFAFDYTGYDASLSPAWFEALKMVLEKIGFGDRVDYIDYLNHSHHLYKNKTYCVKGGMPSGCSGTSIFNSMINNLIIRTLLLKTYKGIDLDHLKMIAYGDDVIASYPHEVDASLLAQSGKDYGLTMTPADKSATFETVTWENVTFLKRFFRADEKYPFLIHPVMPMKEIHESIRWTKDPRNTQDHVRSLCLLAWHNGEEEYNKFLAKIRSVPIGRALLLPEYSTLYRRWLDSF
MenB inh: blocks the Mycobacterium tuberculosis MenB enzyme; AID 540299; inhibition, %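 (about 12 µg/mL by stock and volumes)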; P9WNP5; MenB enzyme assay, absorbance read-out; some hits fall short of the stated cut; 0.43% of 100,000 active;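 active = mean of two replicates above 30%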;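 also: 0% = no compound and 100% = wells with inactive enzyme; the first replicate is given; strong numbers were not always called active; inactives centre near -10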
Target sequence (P9WNP5 whole entry, looked up): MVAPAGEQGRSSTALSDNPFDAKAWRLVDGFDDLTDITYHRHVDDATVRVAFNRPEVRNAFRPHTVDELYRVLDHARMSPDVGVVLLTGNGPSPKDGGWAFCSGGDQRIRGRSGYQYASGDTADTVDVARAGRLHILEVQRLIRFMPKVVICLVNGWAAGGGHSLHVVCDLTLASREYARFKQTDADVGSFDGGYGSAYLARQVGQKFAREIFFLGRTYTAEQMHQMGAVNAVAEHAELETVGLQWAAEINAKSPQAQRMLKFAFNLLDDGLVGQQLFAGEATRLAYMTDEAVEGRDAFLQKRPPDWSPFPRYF
Polio RdRp inh intensity: second read-out of Polio RdRp inh, no call of its own (marks repeat the call); % elongation; measured here: total intensity read-out; formula for this scale not given here;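 total fluorescence in place of polarization; lower means less elongation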
Starred values were filed as active, the others as inactive; i = inactive; · = no result given.

SMILES	Mtb MbtI inh	Polio RdRp inh	Polio RdRp inh intensity	MenB inh
O=C(CSc1nnc(-c2ccco2)o1)NCC(=O)c1ccccc1	-5	99	101	-6
O=C(C(Sc1ccccc1)c1ccccc1)N1CCCc2ccccc21 (configuration not stated)	·	107	111	-19
O=C(C1CCCN1S(=O)(=O)c1cccc2cccnc12)N1CC=C(c2ccccc2)CC1 (configuration not stated)	8	99	102	-10
Cc1ccc2c(c1Br)/C(=N/N1C(=O)c3ccccc3C1=O)C(=O)N2	·	111	111	-107
CCCN(CCC)S(=O)(=O)c1ccc(C(=O)N2CC3CCC(CC3)C2)cc1	-7	109	114	-26
Cc1ccc(-c2oc3ccccc3c(=O)c2O)cc1	6	101	102	0
CSc1nc2sc3c(c2c(=O)[nH]1)CC(C)(C)OC3	·	103	103	-7
COc1ccc(N2C(=O)CCC2(C(N)=O)c2ccccc2)cc1 (configuration not stated)	-15	101	103	-23
Cc1cc(O)c(CN2CC=C(c3ccccc3)CC2)cc1C(C)C	-3	99	103	3
COc1cccc(NC(=O)Cn2ccc3c(OC)cccc3c2=O)c1	54	102	107	-4
Cc1cc(C(=O)NCCCN2CCN(c3ccccc3F)CC2)n(-c2ccccc2)n1	5	98	100	-12
O=C(Nc1ccc(N2Cc3ccccc3C2)cc1)c1ncoc1-c1cccs1	4	101	101	-51
COC(=O)C(C)(C)Sc1nnc2c(n1)[nH]c1c(C)cc(C)cc12	7	100	105	22
O=C(O)C1(c2cccc(C(F)(F)F)c2)CCCC1	21	102	101	5
Cc1nc(/C(N)=N/OC(=O)c2cccc(Cl)c2)c(C(F)(F)F)o1	-12	101	102	-1
C/C=C/C(=O)Nc1ccccc1Br	-6	100	104	-49
CN(CCO)c1c[nH]c(=O)[nH]c1=O	3	98	102	2
O=C(O)CCNCc1ccccc1	-7	104	106	·
COc1cc2nc(CN(C)Cc3sccc3C)[nH]c(=O)c2cc1OC	1	101	109	-1
COc1ccc(CCn2nnc(-c3ccc(NC(C)=O)c(Cl)c3)n2)cc1	-14	103	102	-10

Arranged by count of non-hydrogen atoms (ascending): three of the compounds above
SMILES	Mtb MbtI inh	Polio RdRp inh	Polio RdRp inh intensity	MenB inh
O=C(Nc1ccc(N2Cc3ccccc3C2)cc1)c1ncoc1-c1cccs1	4	101	101	-51
Cc1cc(C(=O)NCCCN2CCN(c3ccccc3F)CC2)n(-c2ccccc2)n1	5	98	100	-12
O=C(C1CCCN1S(=O)(=O)c1cccc2cccnc12)N1CC=C(c2ccccc2)CC1 (configuration not stated)	8	99	102	-10

The listing continues:
SMILES	Mtb MbtI inh	Polio RdRp inh	Polio RdRp inh intensity	MenB inh
Cc1ccc(N2CC(C(=O)N3CCOCC3)CC2=O)cc1C (configuration not stated)	-4	106	104	-14
O=C1NCCN=C1CC(=O)c1ccccc1	17	103	104	-188
CC1=C(C#N)C(=O)N(C)C(=O)/C1=C/c1ccc(-c2cccc(Cl)c2C)o1	83	101	104	-4
CCc1ccc(OCc2nnc(SCC(N)=O)o2)cc1	0	101	102	-17
Cc1noc(C)c1S(=O)(=O)NC(C)C	-2	102	98	0
CC(NC(=O)c1cnc2n(c1=O)CCS2)C12CC3CC(CC(C3)C1)C2 (configuration not stated)	3	99	101	-16
CC1=C(C(=O)OCC(C)C)Sc2ccc(C(F)(F)F)cc2N1	·	111	121	-30
O=C(Nc1ccc(SC(F)F)cc1)c1ccc(CO)cc1	4	99	105	-22
Cc1ccc(-c2nnc(C3CCN(S(=O)(=O)c4ccc(C)cc4C)CC3)o2)cc1	14	101	103	4
Cc1cccc(C(=O)NN)c1	1	100	102	-7
Cc1nc(C)c(CCNC(=O)C2CCCCC2)s1	6	99	108	5
O=c1c2cc(-c3ccccc3)sc2[nH]c(=S)n1Cc1ccco1	9	108	102	-25
CN(C)CCn1nnnc1SCC1=C(C(=O)O)N2C(=O)[C@@H](NC(=O)Cc3csc(N)n3)[C@H]2SC1	1	99	100	3
CCOC(=O)N1CCN(CC(=O)Nc2ccc(F)c(F)c2F)CC1	-6	104	109	-14
CC1=C(C(=O)OC(C)C)C(c2ccc(C)o2)C2=C(CC(c3cccs3)CC2=O)N1 (configuration not stated)	-1	104	101	-23
CCCCn1c(=S)[nH]c2cc(S(=O)(=O)N3CCOCC3)ccc21	22	103	97	11
COc1ccc2c(c1)CCCN2Cn1nc(-c2ccccc2)n(-c2ccccc2)c1=S	·	101	110	5
CCOC(=O)N1CCN(C(=O)CCn2c(=S)[nH]c3cc4c(cc3c2=O)OCO4)CC1	13	103	107	3
N#C/C(=C\c1ccc2c(c1)OCO2)C(=O)N1CCCC1	6	100	96	3
Cc1nc(CSc2n[nH]c(C(C)(C)C)n2)cs1	-10	105	106	8
O=S(=O)(c1cc(Cl)ccc1Cl)n1ccnc1	·	108	107	3
COC(=O)/C(C#N)=C\c1c[nH]c2ccccc12	2	101	103	i
O=C(CSc1nc(-c2ccccc2)nc2c1Cc1ccccc1O2)Nc1ccccc1	-7	102	107	-12
CCC(=O)Nc1ccc(C(=O)OCc2ccccc2)cc1	3	100	102	-21
Cc1cc(C(=O)CN2C(=O)c3ccccc3S2(=O)=O)c(C)n1C	-11	105	107	-1
COc1ccc(C(=O)NCc2ccc(C#N)cc2)cc1OC	-4	101	104	18
O=C(Cc1ccc2c(c1)CCCC2)NC1=NCCS1	76	106	110	-33
O=C1/C(=C/c2ccc(F)cc2)CS/C1=C\c1ccc(F)cc1	1	102	104	-18
COc1ccccc1-c1nnc(SCC2CNC(=O)O2)n1-c1ccccc1 (configuration not stated)	21	98	89	-27
CC(C)(C)N1CC(OC(=O)Nc2ccccc2)C1	-6	104	103	·
CN(C)C(=O)CSc1n[nH]c(-c2ccccc2)n1	9	101	101	19
Cc1ccc(S(=O)(=O)N2CC(=NN=C(N)N)C2)cc1	-3	101	102	-13
CCOC(=O)C1=C(CC)NC2=C(C(=O)CCC2)C1c1ccccc1OCC (configuration not stated)	20	101	101	9
CC(=O)Oc1ccccc1C(=O)N1CCN(c2ccccc2F)CC1	-7	98	99	-10
CCC(C(=O)NC1CCCC(C)C1C)n1nc(C)n2c(cc3sccc32)c1=O (configuration not stated)	-6	101	100	-2
C=CCc1c(C)nc2ccccc2c1Cl	-16	103	99	-22
NC(=O)CSCc1c(Cl)cccc1Cl	-5	100	103	13
COc1cc2c(cc1NC(=O)C(C)Sc1nnc(-c3cccs3)n1CC1CCCO1)oc1ccccc12 (configuration not stated)	-23	104	107	-16
CS(=O)(=O)N1N=C(c2ccc(Br)cc2)CC1c1cc2ccccc2nc1Cl (configuration not stated)	-1	104	104	-76
Cc1nn(S(=O)(=O)c2ccccc2)c(C)c1S(=O)(=O)N1CCCCC1	0	106	107	-12
O=C1CC(C(=O)NCc2ccccc2)N=C(N2CCOCC2)N1 (configuration not stated)	-4	101	97	-20
COC(NC(=O)c1ccccc1)(C(F)(F)F)C(F)(F)F	-5	107	114	19
COc1ccc(OC)c(S(=O)(=O)NCC(c2ccc(N(C)C)cc2)N2CCc3ccccc32)c1 (configuration not stated)	i	100	102	-11
CC1CCC(NC(=O)COc2ccc3c(c2)OCO3)CC1 (configuration not stated)	-15	·	·	-4
N#Cc1ccc(NC(=O)c2ccccc2C(F)(F)F)cc1	-8	102	106	·
COc1cccc(-c2noc(N3CCN(c4ccc(F)cc4)CC3)n2)c1OC	-18	103	103	-19
O=C(CCc1nc(-c2ccccc2)no1)N1CCCCC1	-7	101	104	-2
Cc1nc2sc3c(c2c(=O)n1-n1cccc1)CCCC3	5	101	105	7
COc1ccc(CN(C)C(=O)CSc2nccn2C)cc1OC	-6	102	98	-29
C=CCN=C1SC(CC(=O)Nc2ccc(OC)cc2OC)C(=O)N1/N=C/c1ccccn1 (configuration not stated)	0	·	·	-33
CCCS(=O)(=O)c1c(S(=O)(=O)CCC)c2ccccn2c1C(=O)OC	-1	102	107	-13
COc1ccc(C(=O)OCC2CC2)cc1Br	-7	102	102	-25
O=C1CCCC2=C1C(c1cccc(Cl)c1)C1C(=O)c3ccccc3C1=N2 (configuration not stated)	0	102	104	-10
CCOC(=O)/C=C1\SCC(=O)N1C	30	108	114	-25
CN(C(=O)Nc1cccc(C(F)(F)F)c1)C1CCCCC1	-4	102	99	-13
N#Cc1cccs1	-2	99	101	7
O=C(c1ccco1)N(Cc1ccco1)c1ccc(O)cc1	-9	100	101	-2
COC(=O)c1scc(S(=O)(=O)C(C)(C)C)c1-n1cccc1	-9	104	110	-54
CCc1ccc(N2CCN(S(=O)(=O)N(C)C)CC2)cc1	1	103	107	15
N#Cc1ccc(C(=O)Nc2cc(C(F)(F)F)ccc2-n2cncn2)cc1	-14	108	111	-11

Next part
SMILES	Mtb MbtI inh	Polio RdRp inh	Polio RdRp inh intensity	MenB inh
O=C(COC(=O)Cn1c(=O)oc2ccccc21)Nc1cccc2nsnc12	-10	98	103	-24
O=C(NCCN1CCN(c2ccccc2)CC1)c1ccc2nc3ccc(Cl)cc3c(=O)n2c1	16	102	109	-14
Cc1cc(/C=C2\SC(=S)N(Cc3ccco3)C2=O)c(C)n1-c1ccccc1	-11	114	123	-37
O=C(C1CCCN(Cc2ccccc2F)C1)N1CCCCC1 (configuration not stated)	-201	98	98	-11
C=CCn1c(C2CC(=O)N(c3cc(Cl)ccc3OC)C2)nc2ccccc21 (configuration not stated)	7	100	102	-20
O=C(NCCCN1CCCC1)c1csc2c1CCCCC2	-4	102	106	13
COC(=O)c1sc(N)c(C(=O)OC)c1CSc1nc(C)cs1	10	98	98	-15
O=C(CSc1nc2ccccc2c(=O)n1CCC(=O)N1CCCCC1)c1ccccc1	-3	102	105	-4
Cc1nc2ccccc2c(=O)n1/N=C/c1ccccc1O	-1	102	103	9
c1ccc(-c2nc(NC3CCCCC3)s[n+]2-c2ccccc2)cc1	91*	100	101	·
CCC(C)c1ccccc1NC(=O)c1ccc(Cl)nc1 (configuration not stated)	-12	103	108	-24
CN(Cc1cc2ccccc2[nH]c1=O)S(C)(=O)=O	21	103	105	11
CCn1cc(C(=O)NC2CCCc3ccccc32)c(=O)c2ccc(C)nc21 (configuration not stated)	9	102	105	-19
C/C(=N\O)C(C)(C)Nc1cc(C(F)(F)F)cc(C(F)(F)F)c1	-3	102	107	0
CCc1ccc(C2=CC(=O)C=CC2=O)cc1	43	102	105	2
CN(Cn1nc2sc3ccccc3n2c1=S)C1CCCCC1	-14	96	92	-58
CC(C)c1ccc(-n2cccc2/C=C2/C(=N)N3C=CSC3=NC2=O)cc1	1	108	109	-35
CCc1nc2nc(C)cc(NCCc3ccccc3)n2n1	14	100	98	0
Cc1nnc(NC2CCCC2)s1	-2	100	97	·
C=CCn1c(N)nc2c1c(=O)n(C)c(=O)n2C	-5	101	103	49*
Cc1ccn(CCC(=O)Nc2ccc(F)cc2F)n1	-29	101	103	1
CCN(CC)CN1C(=O)NC2(CCC(C)CC2)C1=O (configuration not stated)	-2	102	99	10
O=C(N=c1nc2ccccn2s1)c1ccccc1Cl	-6	104	110	-8
CCCCn1c(=O)n(C)c(=O)c2c(=S)nc(-c3cccc(S(=O)(=O)N(C)C)c3)[nH]c21	-13	103	104	-20
O/N=C/C(=N/O)c1ccccc1	-12	99	106	·
COc1ccc(-c2nc(N(C)c3ccccc3)[nH]c(=O)c2C#N)cc1	-5	107	106	2
Cc1ccc(S(=O)(=O)Cc2ccc(N)cc2)cc1	-3	101	101	8
CCOC(=O)c1cc2sc(C)cc2n1CC	16	102	103	27
CC(=O)NCc1ccc(C(=O)COC(=O)c2ccc(C#N)cc2)o1	4	105	109	-21
CCn1c(=NC(=O)C(C)C)sc2cc(Br)ccc21	3	105	105	-25
CN(C)c1ccc(C2CC(=O)C3=C(C2)Nc2ccccc2NC3c2cccnc2)cc1 (configuration not stated)	6	101	102	13
Cc1cc(C)c(O)c(C2(O)C(=O)c3ccccc3C2=O)c1	5	98	90	-17
Cc1nc2ccccc2n1CC(=O)OCC(=O)c1cccc(Cl)c1	-3	103	106	·
O=C(c1cccnc1)N(c1ccc(F)cc1)c1nc2ccccc2s1	-6	102	101	·
O=C(NCO)c1ccccc1Cl	-18	99	99	-13
O=C(c1cc(-c2cccs2)on1)N1CCCC1	-10	100	101	8
COc1ccc(C=NNC(=O)C(C)n2cnc3ccccc3c2=O)cc1 (configuration not stated)	-1	104	103	-1
CC(Sc1nc(NC(C)(C)C)nc(N(C)C)n1)C(=O)Nc1ccccc1 (configuration not stated)	2	100	104	-33
O=C(O)c1ccccc1C(=O)NCC1COc2ccccc2O1 (configuration not stated)	-13	104	105	-3
C=CCN1C(=O)c2oc3ccccc3c(=O)c2C1c1ccccc1 (configuration not stated)	-1	99	104	-15
O=C(Nc1cccnc1Cl)c1noc2c1CCCCC2	1	101	104	1
O=C(CSCc1cccc(Br)c1)Nc1ccc2ccccc2c1	·	100	88	-37
O=C(O)COCC(=O)Nc1ccc2c(c1)OCCCO2	-4	102	102	19

High-throughput results deposited in PubChem by ICCB-Longwood Screening Facility, Harvard Medical School.
